From PubChem
HPGD block – HPGD (human) dehydrogenase inhibition; purified HPGD, NADH fluorescence kinetic, PGE2 substrate; AID 894; Potency, µM, inactives show at the top dose activity change, negative = inhibition, hits mostly inhibitors; 4.3% of 150,000 active; P15428; active = well fitted inhibition curve with a large enough effect (not every such curve was filed as active); inconclusive = small, poorly fitted or top-dose-only effect, or another doubt; inactive = no such curve, though single readings can be large or run the other way;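 also: top concentration of the series not given in the record; plate controls included wells without enzyme; inactives centre near -10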
Target sequence (P15428 whole entry, looked up): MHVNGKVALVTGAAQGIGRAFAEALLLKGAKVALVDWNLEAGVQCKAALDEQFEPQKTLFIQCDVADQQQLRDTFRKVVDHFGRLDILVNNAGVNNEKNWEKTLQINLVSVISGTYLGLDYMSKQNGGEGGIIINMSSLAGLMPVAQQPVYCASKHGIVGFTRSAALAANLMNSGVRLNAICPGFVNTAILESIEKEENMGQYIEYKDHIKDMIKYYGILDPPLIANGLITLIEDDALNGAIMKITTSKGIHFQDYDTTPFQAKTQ
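20 nM HPGD preincubated 15 min at room temperature with compound in 50 mM Tris-HCl pH 8, 0.01% Tween 20. Started with 1 mM NAD+ and 30 uM prostaglandin E2; NADH fluorescence (360/450 nm) read 5 times over 30-s intervals, last minus first.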
Active calls of the source: *; ? = inconclusive. % is scaled to controls: 0 for no effect and ±100 for the full control effect; potency is read from the fitted curve at half-maximal effect.

canonical_smiles | HPGD block
O=C(O)c1cccc(C(=O)Cc2ccccc2)c1 | -5%
COCC(=O)Nc1cccc2ccccc12 | -15%
COc1ccccc1NC(=O)c1ccc(NC(=O)COC(=O)C(C)C)cc1 | -4%
COc1ccc(Sc2cc(C(F)(F)F)nc(-c3ccccn3)n2)cc1 | -15%
CCCCOc1ccc(C(=O)NC(=S)Nc2ccc(CN3CCOCC3)cc2)cc1 | 1%
COc1ccc2[nH]c(-c3ccc(F)cc3F)cc(=O)c2c1 | -21%
COc1ccc([C@@H]2[C@H]3C(=O)N(c4cccc(C(F)(F)F)c4)C(=O)[C@H]3ON2C)cc1 | -18%
COc1ccc(/C(O)=C2/C(=O)C(=O)N(CCN3CCOCC3)C2c2ccccn2)cc1OC (configuration not stated) | -23%
CCN(CC(=O)Nc1ccc2c(c1)OCO2)Cc1nc2ccccc2c(=O)[nH]1 | -6%
CCN(CC)CCNC(=O)C12CC3CC(CC(C3)C1)C2 | -10%

Structures shown so far that contain a carbonyl joined to an NH by a bond outside any ring, in the order listed:
canonical_smiles | HPGD block
COCC(=O)Nc1cccc2ccccc12 | -15%
COc1ccccc1NC(=O)c1ccc(NC(=O)COC(=O)C(C)C)cc1 | -4%
CCCCOc1ccc(C(=O)NC(=S)Nc2ccc(CN3CCOCC3)cc2)cc1 | 1%
CCN(CC(=O)Nc1ccc2c(c1)OCO2)Cc1nc2ccccc2c(=O)[nH]1 | -6%
CCN(CC)CCNC(=O)C12CC3CC(CC(C3)C1)C2 | -10%

Other records follow.
canonical_smiles | HPGD block
N/C(Cc1ccc(Cl)cc1)=N\OC(=O)Cc1ccc([N+](=O)[O-])cc1 | -24%
Cc1cc(C)cc(N(CC(=O)Nc2ccc(-c3nc4ccc(C)cc4s3)cc2)S(C)(=O)=O)c1 | ?
CCc1c(C(=O)N2CCN(c3ccccc3F)CC2)[nH]c(C)c1C(C)=O | -18%
COc1cc(OC)cc(C(=O)Nc2c(F)cccc2F)c1 | -9%
Cc1nc2cccc([N+](=O)[O-])c2n1CCCN(C)C | -1%
COc1ccccc1N1CCN(Cc2cccs2)CC1 | -5%
Cc1ccc(Sc2cc(Cl)nc(N)n2)cc1 | 0%
Cc1ccccc1NC(=O)CN1C(=O)COc2ccc(Cl)cc21 | -4%
COCc1cc(Sc2cccc(Cl)c2Cl)nc(-c2ccccc2)n1 | 1%
O=C(CCSCCc1ccccn1)Nc1ccc(Br)cc1F | ?

Remaining list, next part
canonical_smiles | HPGD block
COc1ccc(OC)c(/C=N/NC(=O)CN2CCSCC2)c1 | ?
COc1ccc(CC(=O)Nc2ccccc2C(=O)N2CCOCC2)cc1OC | -3%
CCC(C)c1ccc(NC(=S)NC2CCN(Cc3ccccc3)CC2)cc1 (configuration not stated) | -9%
O=C(NCCc1ccccc1)/C(=C\c1ccc([N+](=O)[O-])cc1)NC(=O)c1ccc(Br)cc1 | -11%
O=C(Cn1c(C(F)(F)F)nc2ccccc21)Oc1cccc(C(F)(F)F)c1 | -6%
C=CCN1C=CC(=C/C=C(/C#N)C(=O)OCC)C=C1 | ?
CCOc1ccc(/C(O)=C2/C(=O)C(=O)N(CCN(CC)CC)C2c2ccco2)cc1 (configuration not stated) | -8%
Cc1ccc(S(=O)(=O)N(C(=O)c2ccncc2)c2ccc(OC(=O)c3ccncc3)cc2)cc1 | -20%
O=C(CSc1nnnn1-c1ccccc1)CSc1nnnn1-c1ccccc1 | -16%
CCN(CC)c1nc(C(N)=O)cc(-c2ccccc2)n1 | -23%

Remaining list, next part:
canonical_smiles | HPGD block
Cn1cccc1C(=O)NC(=O)COC(=O)CC12CC3CC(CC(C3)C1)C2 | -7%
CCCCN1C(=O)C(O)(CC(=O)c2ccccc2OC)c2ccccc21 (configuration not stated) | -6%
CC(C)OC(=O)c1cc(=O)[nH]c2ccccc12 | ?
COc1cccc(CC(=O)Nn2c(C)nc3ccccc3c2=O)c1 | -9%
O=C(CSc1cn(CCNC(=O)c2cccs2)c2ccccc12)NCc1ccccc1 | -21%
CSc1ccc(S(=O)(=O)NCc2ccccc2Cl)cc1 | 22µM*
CCOC(=O)C(=Cc1ccc(-c2ccsc2C(=O)OC)o1)C(=O)OCC | -16%
O=C(CCl)Nc1cc(S(=O)(=O)N2CCCCCC2)ccc1Cl | 2%
Cc1cc(C)cc(N(CC(=O)NCC2CCCO2)C(=O)CN2C(=O)COc3ccccc32)c1 (configuration not stated) | -13%
Cc1ccc(S(=O)(=O)NN2C(=O)/C(=C/c3cccn3C)SC2=S)cc1 | -26%

(cont.)
canonical_smiles | HPGD block
CCCOc1ccc(NC(=O)CC2C(=O)N(CC)C(=S)N2Cc2cccs2)cc1 (configuration not stated) | -12%
COc1cccc(-c2nc(N3CCN(Cc4ccccc4)CC3)c3ccccc3n2)c1O | ?
CCCCC1=C([O-])C2N=CC=CC2=[N+](c2ccccn2)C1=O (configuration not stated) | -7%
Cc1ccc(NC(=O)N2CCC(C(=O)NCCC3=CCCCC3)CC2)cc1 | 1%
Cc1onc(-c2ccccc2Cl)c1C(=O)Nc1cccnc1 | -14%
COC(=O)CCCC1=CC2=C(c3ccccc3)C(=O)C(C)(OC(=O)C3CCCC3)C(=O)C2=CN1C1CCCCC1 (configuration not stated) | -4%
NNc1ncnc2scc(-c3ccc(Cl)cc3)c12 | -14%
CCOC(=O)C(Oc1ccc2c(-c3ccccc3)cc(=O)oc2c1C)c1ccccc1 (configuration not stated) | ?
CCCn1c(N)c(C(c2ccc(OC)cc2)N2CCN(c3ccccc3)CC2)c(=O)[nH]c1=O (configuration not stated) | -19%
Cc1ccc(NC(=O)CS(=O)CC(=O)NCC2OCCc3ccccc32)c(C)c1 (configuration not stated) | -7%

New compounds follow
canonical_smiles | HPGD block
CC(C)OC(=O)c1c(NC(=O)CCC(=O)O)sc2c1CCCCC2 | -4%
Cc1ccc(/C=C/C(=O)c2cc(Br)ccc2OC(=O)c2ccco2)cc1 | -14%
N#CC(c1ccc(O)cc1)N1CCOCC1 (configuration not stated) | -6%
O=C(Nc1ccc(C(=O)Oc2ccccc2)c(O)c1)c1ccco1 | ?
CCN(CC)CCN1C(=O)C(=O)/C(=C(/O)c2cccc(OC)c2)C1c1ccccn1 (configuration not stated) | 32µM*
O=C1c2ccccc2-c2cc([N+](=O)[O-])c([N+](=O)[O-])cc21 | -10%
O=C(c1ccc2c(=O)n3c(nc2c1)CCCCC3)N1CCN(Cc2ccccc2)CC1 | 2%
CCCOc1ccc(Cc2c(Cl)nc(SC)nc2N(C)C)cc1 | -14%
O=C(Oc1ccccc1)c1ccc2nsnc2c1 | -5%
COC(=O)CNC(=O)CNC(=O)c1nn(-c2ccc(OC)c(Cl)c2)c(=O)c2ccccc12 | -12%

(listing goes on)
canonical_smiles | HPGD block
COCCn1nnnc1C(c1ccc(C(F)(F)F)cc1)N1CCOCC1 (configuration not stated) | 4%
Cc1c(Cl)c([N+](=O)[O-])nn1CCCC(=O)Nc1cc(Oc2ccccc2)cc([N+](=O)[O-])c1 | -12%
CC(C)NCCCOc1ccc(C(C)(C)c2ccccc2)cc1 | -4%
N#Cc1c(-c2cccs2)cc(C2CC2)nc1SCC(N)=O | ?
Cc1nc(Nc2ccncc2)c2oc3ccccc3c2n1 | ?
COc1ccc(/C=N/N2CCN(c3ccncc3S(=O)(=O)N3CCCCC3)CC2)cc1 | -3%
O=C(O)[C@@H]1CCCC[C@@H]1C(=O)N1CCc2ccccc2C1CN1C(=O)c2ccccc2C1=O (some centres not stated) | -12%
CC1CCCCN1c1ncnc2ccccc12 (configuration not stated) | -24%
COc1ccccc1NC(=O)CCC(=O)N/N=C(/C)c1ccc(C)cc1 | 0%
COc1ccc(C(=O)c2oc3ccccc3c2N)cc1 | ?

Next structures.
canonical_smiles | HPGD block
COC(=O)N/N=C/c1cc(C)n(-c2ccccc2)c1C | -7%
Nc1cc(N2CCCCC2)c(Cl)cc1[N+](=O)[O-] | -8%
Nc1nnc(CCN2C(=O)CSC2=O)s1 | -4%
CCOc1cccc(OCCOc2ccccc2[N+](=O)[O-])c1 | -14%
Cn1c(Cc2ccccc2)nnc1SCc1ccc(C(=O)O)cc1 | -1%
O=C(c1cc(=O)[nH]c2ccccc12)N1CCN(S(=O)(=O)c2ccc3ccccc3c2)CC1 | -11%
COc1ccc(C(C#N)(CCC#N)CCC#N)cc1OC | -3%
Cc1ccc(NC(=O)c2cc(NC(=O)C3CC=CCC3C(=O)O)ccc2N2CCOCC2)cc1Cl (configuration not stated) | -8%
COc1ccc(C)cc1NC(=O)CSc1nc(SC)ns1 | -20%
Cc1ccc(OCC(=O)c2cc(C)n(C3CC3)c2C)c([N+](=O)[O-])n1 | -7%

(list continues)
canonical_smiles | HPGD block
COc1ccc(CC(=O)c2ccc(OC)c(OC)c2)cc1 | -17%
COCc1cc(=O)[nH]c(SCC(=O)Nc2ccccc2)n1 | -6%
Cc1ccc(NC(=O)c2ccc3ccccc3n2)nc1 | -21%
COC(=O)c1ccccc1C(=O)N1CCOCCN(C(=O)c2ccccc2C(=O)OC)CCOCC1 | -8%
COc1ccc([N+](=O)[O-])cc1NC(=O)CCCOc1ccccc1 | -16%
Cn1c(=O)c2c(nc(NCc3ccccc3)n2Cc2ccc(F)cc2)n(C)c1=O | -21%
COc1ccc2cc(C(=O)Nc3ccccc3)sc(=O)c2c1OC | -16%
O=C(NCC1CCCO1)c1csc2c1CCCC2 (configuration not stated) | 20µM*
O=C(CCc1nc2ccccc2c(=O)[nH]1)N1CCN(C/C=C/c2ccccc2)CC1 | -26%
Cc1cc(Br)c(NC(=O)COC(=O)CSc2nnc(-c3ccc(Cl)cc3)o2)c(Br)c1 | -13%

The listing continues.
canonical_smiles | HPGD block
CNc1ccc(OC(F)F)cc1C(=O)c1ccccc1 | -13%
Cc1ccc(-c2nn(CCC#N)cc2C=C(C#N)C#N)cc1 | -21%
CN1C(=O)C(C(=O)Nc2ccccc2F)c2ccccc21 (configuration not stated) | -4%
CCOC(=O)CSc1nc2ccccc2c(=O)n1-c1ccc(C(=O)NCCOC)cc1 | -20%
O=C(OCC(O)CN1CCCCC1)C12CC3CC(CC(C3)C1)C2 (configuration not stated) | 4%
CCOC(=O)C1CCCN(c2c(NCCCN(CC)c3cccc(C)c3)c(=O)c2=O)C1 (configuration not stated) | -10%
COc1ccc(-c2nc(CS(=O)CC(=O)NCc3ccccn3)c(C)o2)cc1 (configuration not stated) | -21%
O=C(Nc1ccccc1)c1ccc2nc(-c3ccco3)c(-c3ccco3)nc2c1 | 5µM*
CC(C)NCc1cccc([N+](=O)[O-])c1 | -2%
O=C(c1ccc(COc2ccc(F)cc2)o1)n1cc(Br)cn1 | -7%

The results go on:
canonical_smiles | HPGD block
COc1ccccc1N1CCN(c2cc(=O)n(-c3ccc(Cl)cc3)c(=O)[nH]2)CC1 | -15%
O=C(COc1ccc2c(c1)OCO2)NC12CC3CC(CC(C3)C1)C2 | ?
COC(=O)NCCOC(=O)N(O)c1ccc(Br)cc1 | -17%
Cc1ccc(/C=C/C(=O)N2CCN(c3ncccn3)CC2)o1 | 20µM*
CCOc1cc(/C=N/n2cnnc2)c(Br)cc1O | ?
Cc1nc2ccc(NC(=O)N3CCCCC3)cc2s1 | -6%
O=C(NCc1cccs1)c1cccnc1C(=O)O | 3%
CC(=O)c1ccc(OCC(C)C)c(Cc2c(O)nc(N)[nH]c2=O)c1 | -9%
CCCC[n+]1ccc(-c2nc3ccc([N+](=O)[O-])cc3[nH]2)cc1 | ?
O=C(Nc1c(C(=O)N2CCOCC2)cnn1-c1ccccc1)c1ccco1 | -6%

Next section
canonical_smiles | HPGD block
COc1ccc(-c2csc(NC(=O)c3ccco3)n2)cc1 | -6%
Cc1cc(C)cc(N(CC(=O)NC2CCCCC2)C(=O)CCC(=O)Nc2cc(C)ccn2)c1 | -5%
Cc1ccc(S(=O)(=O)NN2C(=O)/C(=C/c3ccccn3)SC2=S)cc1 | -24%
Cc1c(Nc2cc(N3CCCCCC3)c3nonc3c2[N+](=O)[O-])c(=O)n(-c2ccccc2)n1C | 11µM*
Cc1ccc(C(=O)NCc2ccc(Cl)cc2)o1 | 14µM*
CCC(=S)/C=C1\Sc2ccc3ccccc3c2N1CCCS(=O)(=O)O | 32µM*
NC(=O)CN1C(=O)C2CCCCN2C(=O)c2ccccc21 (configuration not stated) | -16%
CCOc1cccc2cc(C(N)=O)c(=NCc3ccccc3)oc12 | -11%
Clc1cccc(Cl)c1/C=N\Nc1nccs1 | 7.9µM*
Cc1cc(NC(=O)c2ccc(Cl)cc2)n(CCOC(=O)c2ccc(Cl)cc2)n1 | -6%

At a glance, two of the compounds above:
canonical_smiles | HPGD block
CC(=O)c1ccc(OCC(C)C)c(Cc2c(O)nc(N)[nH]c2=O)c1 | -9%
CCCC[n+]1ccc(-c2nc3ccc([N+](=O)[O-])cc3[nH]2)cc1 | ?

Additional records
canonical_smiles | HPGD block
COc1ccc(CCNc2nc(-c3sc(C)nc3C)cs2)cc1OC | -28%
Cc1ccc(NC(=O)c2ccc(S(=O)(=O)N3CCCCC3)cc2)cc1 | -4%
CC(C)NC[C@H](O)c1ccc(O)c(O)c1 | ?
Cc1ccccc1OCC(=O)N/N=C/c1cn(Cc2ccccc2)c2ccccc12 | ?
CCO/C=C1\C(=O)N(CC)c2ccccc21 | -11%
Cn1c2c(c(=O)[nH]c1=O)C(NC(=O)c1ccco1)(C(F)(F)F)C(=O)N2 (configuration not stated) | -4%
O=C(CSc1nnnn1C1CCCCC1)NCCc1ccccc1 | -13%
CCN(CC)S(=O)(=O)c1cccc(-c2nnc(SCC(=O)NCCC3=CCCCC3)n2N)c1 | -2%
CC(=O)n1nc(-c2ccco2)nc1SCc1ccccc1 | 13µM*
CCOC(=O)CSc1nnc(C)c(=O)[nH]1 | 3%
C=CCC(C)(NCc1ccccc1)C(=O)OCC (configuration not stated) | -5%
O=C(COC(=O)CNC(=O)c1cccc([N+](=O)[O-])c1)Nc1cccc(S(=O)(=O)N2CCCC2)c1 | -11%

Only part of the results is shown; rates above refer to the full screens.
